MT1-MMP act inh: blocks activation of human MT1-MMP. P50281. HT1080 RFP-PRO-GFP cells, GFP/RFP ratio fluorescence, overnight; percent of plate control window, DMSO zero. GFP/RFP ratio change, % at 20 µM. 360,000 tested, 0.061% active. AID 651647;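 active = GFP/RFP ratio change of at least 30% with cell ATP level not reduced by more than half and red fluorescence within 50% of control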; also: strong numbers were not always called active
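Assay system – RFP-PRO-GFP reporter HT1080 cells · Compound dosing – single dose of 20 µM compound, 1% DMSO final · Incubation – overnight compound exposure at 37 °C · Measure – GFP/RFP fluorescence ratio · Benchmarks – DMSO wells and RFP-L50D-GFP cells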
Rce1 inh: blocks yeast Ras-converting enzyme. Q03530. AID 2563. 290,000 tested, 0.27% active. yeast membranes, quenched prenylated peptide cleavage fluorescence. calls only;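 active = fall in fluorescence gain of 50% or more versus controls, with final raw signal at or below 3038400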;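 also: plate controls were neutral control wells for no effect and wells lacking membranes for full effect; tested at 10 µM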
Target sequence (Q03530 whole entry, looked up): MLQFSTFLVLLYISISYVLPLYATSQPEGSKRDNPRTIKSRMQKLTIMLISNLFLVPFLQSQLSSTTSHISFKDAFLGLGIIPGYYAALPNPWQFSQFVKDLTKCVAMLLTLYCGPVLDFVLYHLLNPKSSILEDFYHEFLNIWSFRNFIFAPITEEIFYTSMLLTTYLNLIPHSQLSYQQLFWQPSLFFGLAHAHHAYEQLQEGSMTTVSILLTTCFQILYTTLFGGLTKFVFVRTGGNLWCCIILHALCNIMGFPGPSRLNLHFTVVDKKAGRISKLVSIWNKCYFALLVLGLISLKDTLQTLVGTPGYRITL
PABP FP inh: blocks human PABP binding to poly(A) RNA. P11940. inhibition, % at 35 µM. 290,000 tested, 1% active. AID 2014. fluorescence polarization;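 active = 50% or more with normal probe brightness, or confirmed in later tests; about a fifth of its hits are not listed in these tables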;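 also: calls also rest on retests at 20 µM and on dose response follow-up; controls were probe without protein and protein plus probe with vehicle; some compounds called inactive have numbers as strong as hits; many hits fall short of the cut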
Target sequence (P11940 whole entry, looked up): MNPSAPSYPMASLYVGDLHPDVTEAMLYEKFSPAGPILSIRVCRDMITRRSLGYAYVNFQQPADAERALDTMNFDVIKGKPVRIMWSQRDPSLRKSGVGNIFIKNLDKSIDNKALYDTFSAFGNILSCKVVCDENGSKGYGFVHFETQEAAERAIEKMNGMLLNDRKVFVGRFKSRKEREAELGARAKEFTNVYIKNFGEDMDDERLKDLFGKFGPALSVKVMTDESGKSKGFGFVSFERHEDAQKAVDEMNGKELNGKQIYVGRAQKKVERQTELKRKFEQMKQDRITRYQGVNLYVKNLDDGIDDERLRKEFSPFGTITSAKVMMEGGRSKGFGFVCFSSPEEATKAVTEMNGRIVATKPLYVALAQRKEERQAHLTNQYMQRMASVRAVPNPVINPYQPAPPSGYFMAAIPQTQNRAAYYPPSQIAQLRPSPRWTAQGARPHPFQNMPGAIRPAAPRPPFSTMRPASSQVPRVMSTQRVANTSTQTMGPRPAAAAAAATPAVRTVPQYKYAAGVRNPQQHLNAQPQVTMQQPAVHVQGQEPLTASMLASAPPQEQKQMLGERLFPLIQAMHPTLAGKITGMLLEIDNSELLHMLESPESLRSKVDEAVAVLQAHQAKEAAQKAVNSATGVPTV
Env fusion inh: HIV envelope-mediated fusion inhibition | inhibition, % at 12.3 µM | HeLa-JRFL Env/CEM21 cell fusion, luciferase | 360,000 tested, 1.1% active | AID 651610;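 active = mean replicate inhibition score of at least 50 and every replicate individually at or above 50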;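 also: 0% = plate neutral controls and 100% = maraviroc near 300 nM; one replicate is shown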
Yeast UUG start: alters start codon recognition fidelity in yeast. S. cerevisiae UUG-firefly luciferase reporter, luminescence/redox ratio. activity score, % at 18.7 µM. 350,000 tested, 0.13% active. AID 602363;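 active = replicate mean at a twofold rise or more, about +100% in these data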;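 also: firefly luciferase made from a UUG start codon reports start codon fidelity; reporter light over untreated wells divided by growth signal over untreated wells; some hits fall short of that in this replicate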
eIF4H FP inh: inhibitors of RNA binding by human eIF4H; eIF4H fluorescence polarization binding assay; inhibition, % at 35 µM; 290,000 tested, 0.94% active;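 active = 50% or more with normal probe brightness, or confirmed in later tests; about a fifth of its hits are not listed in these tables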;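 also: calls also rest on retests at 20 µM and on dose response follow-up; 0% = protein and probe with vehicle and 100% = probe without protein; strong numbers were not always called active; many hits fall short of the cut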
CSC inhib: blocks cancer stem cells; cancer stem cell-like cells viability, luminescence; inhibition, % at 7.5 µM; 300,000 tested, 1.1% active; AID 2717;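 active = mean at 75% or more and at least half the replicates too; tested in HMLE shEcad cells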;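 also: 0% = median of negative and 100% = median of positive control wells; the first replicate is given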
eIF4H FP inh retest: recorded beside eIF4H FP inh, whose call it bears; inhibition, %; compound at 20 µM; confirmation average;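 mean of two retest wells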
PABP FP inh retest: further read-out of PABP FP inh, marked with its call; inhibition, %; compound at 20 µM; confirmation repeats;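 mean of two retest wells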
MT1-MMP act inh RFP: recorded beside MT1-MMP act inh, whose call it bears; RFP signal change, %; measured here: RFP expression control read;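 0 = vehicle wells; hits needed this value within 50% of zero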
The depositor's hits bear a star; i = inactive; . = no result given; + = active, no number.

SMILES | MT1-MMP act inh | MT1-MMP act inh RFP | Rce1 inh | PABP FP inh | Env fusion inh | Yeast UUG start | eIF4H FP inh | CSC inhib | others
COc1ccccc1/C=C\C=N\NC(=O)CCn1nnc2ccccc21 | 1 | 1 | i | 2 | 10 | . | -5 | -8
O=C(NCc1ccco1)c1cnc2ccccn2c1=O | 2 | 6 | i | 9 | -10 | -8 | -2 | -5
Cn1c(CN2CCCC2)nc2cc(NC(=O)Nc3ccccc3)ccc21 | 8 | 2 | i | -12 | . | -23 | -6 | -18
Cc1cccc2nc(Cn3c(=O)n(CCC(=O)NCc4ccco4)c(=O)c4sccc43)cc(=O)n12 | -3 | 0 | i | 1 | 14 | -4 | -2 | .
Cc1ccc(S(=O)(=O)/N=C(\CN2CCOCC2)N2CCOCC2)cc1 | 2 | 3 | i | 4 | -119 | -6 | 6 | 5
CCc1cccc2c(C=C(C#N)C#N)cn(CC(=O)N3CCCCCC3)c12 | -16 | 0 | i | 3 | . | -16 | -2 | 10
COc1cccc(-c2c(NC(=O)c3ccco3)oc3ccc(Cl)cc3c2=O)c1 | 0 | 0 | i | -2 | -2 | -18 | -9 | -2
C[C@@H]1CC[C@]2(C(=O)O[C@@H]3O[C@H](CO)[C@@H](O)[C@H](O)[C@H]3O)CC[C@]3(C)C(=CCC4[C@@]5(C)CC[C@H](O[C@@H]6OC[C@H](O)[C@H](O[C@@H]7O[C@H](CO)[C@@H](O)[C@H](O)[C@H]7O)[C@H]6O)C(C)(C)C5CC[C@]43C)C2[C@]1(C)O (stereo not given in full) | 5 | 3 | . | . | -14 | 25 | . | -17
O=C(c1ccco1)N1CCN(Cc2nnc(-c3ccccc3F)o2)CC1 | 1 | 1 | i | 9 | 7 | 1 | -3 | .
COc1ccc(Cl)cc1NC(=O)CNCc1cccs1 | 7 | 2 | i | 5 | -1 | -10 | 10 | -2
Brc1ccccc1OCCCCCN1CCCC1 | . | . | i | 0 | . | . | -3 | -14
COc1ccc(N2CCN(c3ccc(NC(=O)NN)cc3)CC2)cc1 | 4 | 0 | i | -8 | -1 | -23 | -11 | -11
COc1ccc2oc(C(=O)OCC(=O)NC(C)(C#N)C3CC3)c(C)c2c1 (stereo not given) | 3 | 2 | i | . | 1 | 0 | . | .
Cc1nn(Cc2ccc([N+](=O)[O-])cc2)c(=O)n1-c1ccc(F)cc1 | 6 | 4 | i | -6 | -51 | -12 | -10 | -1
O=C(COC(=O)c1cnccn1)Nc1ncc(Cl)cc1Cl | -7 | 6 | i | . | -23 | . | . | -12
O=C(NCc1ccc2c(c1)OCO2)c1cccc(S(=O)(=O)N2CCOCC2)c1 | 1 | 6 | i | 7 | -19 | -11 | -6 | 5
CC1(C)C([N+](=O)[O-])C(c2ccc(F)cc2)NC(c2ccc(F)cc2)C1[N+](=O)[O-] (stereo not given) | 3 | 7 | i | -5 | 20 | -7 | 2 | 8
Cc1cccc(CSc2nnc(CCNC(=O)OC(C)(C)C)o2)c1 | -4 | -3 | i | -7 | 3 | -26 | 15 | 6
CCc1ccc(-c2cnc3nc[nH]c(=O)c3n2)cc1 | 0 | 2 | i | . | -10 | -11 | . | 5
CCOC(=O)c1c[nH]c2c(C(=O)c3ccccc3)cc(Cl)cc2c1=O | 3 | 2 | i | 7 | 16 | -6 | -5 | -2
COc1ccccc1NC(=O)C(=O)N/N=C/c1cccs1 | 5 | 1 | i | -16 | -26 | . | -2 | -7
CC(C)CCNC(=O)CSc1nnc(-c2ccc(S(=O)(=O)N3CCCC3)cc2)n1C | 2 | 2 | i | 4 | . | -14 | -6 | 1
COc1ccc(/C=C2\Oc3cc(OCC(=O)N4CCC[C@H]4CO)ccc3C2=O)c(OC)c1 | -7 | -3 | i | 17* | . | 2 | 73 | -7 | eIF4H FP inh retest=-12;PABP FP inh retest=57*
CC(=O)c1c(C)[nH]c(C(=O)NCc2ccco2)c1C | -2 | -3 | i | 2 | -19 | . | 4 | -6
CCCc1nc2ccc(NC(=O)NCCC(=O)OCC)cc2c(=O)n1Cc1cccc(Cl)c1 | -1 | -6 | i | -5 | . | -13 | -4 | 2

Filtered by structure, the entries above with fluorine
SMILES | MT1-MMP act inh | MT1-MMP act inh RFP | Rce1 inh | PABP FP inh | Env fusion inh | Yeast UUG start | eIF4H FP inh | CSC inhib | others
O=C(c1ccco1)N1CCN(Cc2nnc(-c3ccccc3F)o2)CC1 | 1 | 1 | i | 9 | 7 | 1 | -3 | .
Cc1nn(Cc2ccc([N+](=O)[O-])cc2)c(=O)n1-c1ccc(F)cc1 | 6 | 4 | i | -6 | -51 | -12 | -10 | -1
CC1(C)C([N+](=O)[O-])C(c2ccc(F)cc2)NC(c2ccc(F)cc2)C1[N+](=O)[O-] (stereo not given) | 3 | 7 | i | -5 | 20 | -7 | 2 | 8

(listing goes on)
SMILES | MT1-MMP act inh | MT1-MMP act inh RFP | Rce1 inh | PABP FP inh | Env fusion inh | Yeast UUG start | eIF4H FP inh | CSC inhib | others
COC(=O)c1ccc(N2CCN(C)CC2)c(NC(=O)COc2ccc(OC)cc2)c1 | 1 | -3 | i | -3 | -5 | 2 | 8 | -17
O=C1CC(=O)CC(c2ccccc2Cl)C1 | 0 | 7 | . | -5 | -11 | . | 3 | -7
COc1cccc(CNS(=O)(=O)c2ccc3c(c2)NC(=O)CS3)c1 | -3 | -5 | i | 1 | 5 | -21 | -5 | -5
CC(=O)Cc1nsc(NC(=O)c2cccc(F)c2)n1 | -1 | 0 | i | -9 | -19 | . | -1 | 3
COC(=O)c1ccc(N2CCN(C)CC2)c(NC(=O)c2sc3ccccc3c2Cl)c1 | 1 | 2 | i | . | 8 | -5 | . | 15
COc1cc(C(=O)N2CCN=C2c2ccccc2)cc(OC)c1OC | 2 | 3 | . | 4 | -42 | -8 | 6 | -11
O=C(Nc1cccc(Cl)c1)N1CCOCC1 | 2 | 1 | i | -10 | -2 | -8 | 1 | -15
CC(C)(C)NS(=O)(=O)c1ccc(CCC(=O)NCc2ccccn2)cc1 | -3 | 0 | i | -10 | 13 | -14 | -7 | 1
CC(Sc1nnc(-c2ccc(C(C)(C)C)cc2)n1C)C(N)=O (stereo not given) | 2 | 2 | . | 4 | . | . | -10 | 3
Cc1ccc(Sc2cc(C(=O)NCCN(C)C)c3ccccc3n2)cc1 | 1 | 0 | i | -12 | 12 | 0 | -11 | 3
CCCOc1ccc(C(CC(=O)O)NC(=O)C(c2ccccc2)c2ccccc2)cc1 (stereo not given) | -1 | 1 | . | . | -5 | -10 | . | .
CCOC(=O)Cc1nc2ccccc2[nH]1 | -4 | -1 | i | -8 | -78 | -35 | 3 | -1
C=CCSc1nnc(NC(=O)CCNC(=O)c2ccco2)s1 | 5 | 3 | i | 6 | 2 | -20 | 3 | -15
CCOc1ccc(N2C(=O)/C(=C/c3ccccc3)N=C2SC)cc1 | 4 | -7 | i | -11 | -23 | . | -7 | 18
O=C(NC1CCCC1)c1cnn2c(C(F)(F)F)cc(-c3ccc4c(c3)OCO4)nc12 | -27 | -3 | i | 13 | . | -7 | -5 | 31
Cc1cc(C(O)c2ncc(-c3ccccc3F)[nH]2)ccc1F (stereo not given) | 3 | -5 | . | . | -28 | 4 | . | .
COC(=O)c1ccc(CN2CCN(CCCc3ccccc3)C(CCO)C2)cc1 (stereo not given) | -2 | -1 | i | -20 | 5 | -26 | -2 | 15
Cc1ccc2[nH]c(=O)c(C(c3nnnn3C(C)(C)C)N(Cc3ccco3)CC3CCCO3)cc2c1 (stereo not given) | -4 | -5 | i | 9 | . | -12 | -2 | -3
CN(C)c1nc2n(c(=O)n1)C(C#N)CS2 (stereo not given) | 1 | 3 | i | 7 | -32 | 6 | 10 | -15
COC(=O)Cc1ccc(NC(=O)c2ccc(C(C)(C)C)cc2)cc1 | 2 | -15 | i | -5 | 59* | -30 | -7 | 32
O=C(O)c1ccccc1NCCO | 3 | -4 | + | 6 | -7 | . | 2 | -10
CCn1c(SCC(=O)N2CCCC2)nnc1-c1ccco1 | -2 | 3 | i | 6 | -10 | -9 | 46 | -1
CC1=C(C(=O)N(C)C)CC(CC(=O)NCCCCc2ccccc2)C(=O)N1Cc1ccc(C(C)(C)C)cc1 (stereo not given) | -7 | -12 | . | . | -4 | 10 | . | .
Cc1ccc(S(=O)(=O)N2CCCCC2)cc1NC(=O)CCNC(=O)c1ccc([N+](=O)[O-])cc1 | 4 | -16 | . | . | 59* | -16 | . | .
O=S(=O)(c1ccc(Nc2ccc(-c3ccc4c(c3)OCCO4)nn2)cc1)N1CCCC1 | 0 | 0 | i | -2 | . | -6 | -1 | 58
SMILES | MT1-MMP act inh | MT1-MMP act inh RFP | Rce1 inh | PABP FP inh | Env fusion inh | Yeast UUG start | eIF4H FP inh | CSC inhib | others
CCCCCN(C(=O)NC(=O)Nc1ccc(C)cc1C)S(C)(=O)=O | -3 | 2 | i | 10 | -12 | . | -9 | 0
CS(=O)(=O)c1ccc(Cl)c(NC(=O)c2cccc(Br)c2)c1 | 2 | 6 | i | 2 | 3 | . | -7 | 13
Cc1ccc2c(c1)C1CN(C)CCC1N2C(=O)COc1ccc(N(C)C(=O)c2ccccc2)cc1 (stereo not given) | -4 | -2 | i | 9 | -21 | . | 3 | 15
Cn1nnnc1Sc1ncnc2scc(-c3ccsc3)c12 | -5 | -9 | . | . | -104 | -11 | . | .
C[C@H](CCC(=O)OCc1cn(CC(=O)c2ccc(O)cc2)nn1)C1CC[C@H]2[C@@H]3CC[C@@H]4C[C@H](O)CC[C@]4(C)[C@H]3C[C@H](O)[C@]12C (stereo not given in full) | 1 | 3 | . | . | -3 | -23 | . | .
Nc1nnnn1CC(=O)N/N=C/c1ccc(-c2cccc(Cl)c2)o1 | 1 | 1 | . | 10 | -12 | . | -2 | 19
COc1cccc(NC(=O)Cn2c(=O)n(-c3ccccc3)c(=O)c3sccc32)c1 | 4 | 0 | i | -6 | 6 | . | -7 | -3
CC(C)NC(=O)C(C)n1cccc1C(=O)c1ccccc1 (stereo not given) | 1 | 1 | i | 0 | . | -18 | -8 | 2
CCCN(CCC)Cc1c(C(=O)N/N=C/c2ccsc2)nnn1-c1nonc1N | 0 | 3 | i | -2 | 14 | -12 | 4 | .
COc1ccccc1CCNC(=O)C(=O)NCCC1CCCCN1S(=O)(=O)c1cccs1 (stereo not given) | -3 | -6 | i | . | 7 | 18 | . | 1
C[C@@H](CSc1ccccc1)CN1CC[C@H](O)CCC1=O | 1 | 1 | i | 4 | -9 | -9 | -5 | -5
COCCCNC(=O)Cn1c(=O)n(Cc2ccc(F)cc2)c(=O)c2sccc21 | . | . | i | 1 | . | 0 | -2 | -7
CCOc1ccc(S(=O)(=O)N2CCC(C(=O)OC(C)C(=O)NC3CCCCC3C)CC2)cc1 (stereo not given) | -3 | -2 | . | . | -26 | -7 | . | -9
Cc1ccccc1-c1nc(CS(=O)(=O)CC(=O)NCCCN2CCCC2)c(C)o1 | 4 | 2 | i | -7 | 22 | -7 | -10 | .
Cn1c(=O)c2c(nc(SCC(=O)O)n2Cc2cccc(C(F)(F)F)c2)n(C)c1=O | 2 | 4 | i | 2 | . | -7 | -4 | -1
Cn1cnnc1SCC(=O)N1CCC(Cc2ccccc2)CC1 | 2 | 1 | i | 6 | . | -9 | -7 | 19
O=S(=O)(Nc1cccc2cn[nH]c12)c1ccc(F)cc1 | 0 | 1 | i | 3 | . | 0 | 2 | .
O=C(CSc1nnc2n1CCCCC2)NCc1ccccc1 | 5 | 9 | . | . | 58* | -17 | . | .
Cc1c(NS(=O)(=O)c2cc(C(=O)NC(C)c3ccccc3)ccc2Cl)c(=O)n(-c2ccccc2)n1C (stereo not given) | 0 | -3 | . | . | 1 | 20 | . | .
Cc1cccc(S(=O)(=O)N2CCN(Cc3ccc4c(c3)OCO4)CC2)c1 | 1 | 2 | . | 5 | 2 | -12 | 2 | -5
O=C(Nc1ccc(S(=O)(=O)Nc2ncccn2)cc1)c1ccccc1Br | -2 | 4 | . | 1 | -8 | -8 | -1 | 4
